# Screens as filed in PubChem BioAssay.
# Biofilm kill mix: clotrimazole potentiators killing C. albicans biofilm, primary screen, 4-compound mixtures; C. albicans biofilm persisters + clotrimazole, fluorescence viability; primary screen in compound mixtures of four per well; inhibition, % at 7.6 µM; AID 1242, 2008; 0.02% of 120,000 active;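 active = inhibition above 30.3% in the primary screen of four-compound pools, then above 30% when the compound was retested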;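 also: compounds exposed to preformed 24 h biofilms for 48 h; the number belongs to the whole pool; some results filed as inactive read as strong as hits; inactives centre near 12; 0% = biofilm with clotrimazole alone and 100% = kill control; retested singly at about 60 µM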
#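 System: C. albicans CAF4-2 wild-type biofilms; Medium: RPMI/MOPS medium, pH 7.0; Reagent: Clotrimazole, 50 µg/mL; Times: biofilm formation 24 h, compound exposure 48 h, 37 °C; Detection: 2-h Alamar Blue fluorescence, 535/590 nm excitation/emission; Evaluation: percent inhibition of biofilm viability.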
# * hit, by the source's call. The list is partial (hit frequency here may not be typical).
compound | Biofilm kill mix
C=CCn1c(N)cc(=O)nc1SCC(=O)Nc1ccc(C)cc1 | 4.6
COc1cccc(N2CN(CCc3ccccc3)CNC2=S)c1 | 14.9
CC(=O)C(Sc1nc(N(C)C)nc(N(C)C)n1)C(=O)Nc1ccccc1 (centres undefined) | -1.9
CC1(C)CC(=O)C2=C(C1)OC1=C(C(=O)CC(C)(C)C1)C2(C)C | 13.3
COC(=O)c1c(NC(=O)c2cccnc2Cl)sc(C(=O)N(C)C)c1C | 12.7
CC(C)=C1C2CCC1C(C(=O)Nc1cc(C)cc(C)c1)C2C(=O)O (centres undefined) | 7.5
C=CCNC(=O)c1ccc2c(=O)n(CCCN3CCCC3=O)c(=S)[nH]c2c1 | 12.0
CCCC(=O)Nc1cc(S(=O)(=O)N(CC)CC)ccc1Cl | -0.9
O=C(NCC1CC1)[C@@H]1C[C@H]1[C@@H](NP(=O)(c1ccccc1)c1ccccc1)c1ccccc1 | -9.1
CN1C(=O)c2ccc(NC(=O)CCS(=O)(=O)c3ccccc3)cc2C1=O | 7.3
COc1ccccc1/C=N/OC(=O)c1ccc(F)cc1 | 15.0
O=C(COC(=O)C1CC(=O)N(Cc2ccccc2)C1)Nc1ccc(Cl)cc1F (centres undefined) | 4.6
Cc1cccc(Nc2nc3c(s2)CCCC3)c1 | 15.8
COc1ccc(-c2cc(=O)oc3cc(OC(=O)C4CCCCC4)c(Cl)cc23)cc1 | 7.7
COc1ccc(CCN2C(=NC(=O)CC(C)C)SC3CS(=O)(=O)CC32)cc1OC (centres undefined) | 7.9
C=CCNC(=O)/C=C/c1c(F)cccc1Cl | 19.5
O=C(CCNS(=O)(=O)c1cccc2nonc12)NC1CCCCC1 | 5.2
Cn1cccc1C(=O)NC(=O)COC(=O)c1cc([N+](=O)[O-])ccc1Cl | 8.5
CCOC(=O)C1(Cc2cccc(OC)c2)CCCN(Cc2nccn2CC)C1 (centres undefined) | 22.6
O=c1c2ccccc2oc2nc(-c3cccs3)n(CCc3ccccc3)c(=O)c12 | 14.3
Cc1cc(C(F)(F)F)n2nc(-c3cnn(C)c3C(F)(F)F)c(Br)c2n1 | 20.2
CCCNC(=O)Nc1ccc(F)c(Cl)c1 | 3.8
FC(F)(F)COc1cc(-c2nnc(SCc3ccccc3)n2Cc2ccco2)cc(OCC(F)(F)F)n1 | 16.0
CCOc1ccc(C(=O)Nc2nccs2)cc1[N+](=O)[O-] | 1.0
CN(C)CCCNC(=S)Nc1ccc(-c2ccccc2)cc1 | 17.5
C=CCn1c(SCC(C)=O)nnc1-c1ccc2ncccc2c1 | 24.1
CC(=O)c1c(C)[nH]c(C(=O)Nc2cc(S(=O)(=O)N(C)C)ccc2C)c1C | 7.7
CNC(=O)c1cc(OCC(F)(F)F)ccc1OCC(F)(F)F | 17.0
Cc1cccc(C)c1NC(=O)C1(N(Cc2ccco2)C(=O)Cn2nnnc2N)CCCCC1 | 13.8
CNC(=S)N1CCN(C(c2ccccc2)c2ccccc2)CC1 | 23.9
C/C(=N\NC(=O)COc1ccc(C(C)(C)C)cc1)c1ccccc1 | 9.8
O=C(NCc1ccco1)/C(=C\c1cccnc1)NC(=O)c1ccccc1F | 11.0
CN1C(=O)/C(=N\OC(=O)c2ccccc2Cl)c2ccccc21 | 11.8
C=C[C@]1(C)C[C@H]1[C@H](NP(=O)(c1ccccc1)c1ccccc1)c1ccccc1 | 18.2
Cc1nn(CCCC(=O)Nc2ccc(Br)cc2F)c(C)c1[N+](=O)[O-] | 4.9
CC1=C(C(=O)N2CCN(c3cc(C)ccc3C)CC2)C2(CCC(C)CC2)OC1=O (centres undefined) | 5.1
CC(=O)NS(=O)(=O)c1ccc(NC(=O)COc2ccc(C(=O)c3ccccc3)cc2)cc1 | 13.3
Cc1cccn2c(=O)c3cc(C#N)c(=NC(=O)c4cccs4)n(CC(C)C)c3nc12 | 20.2
COc1cccc(NC(=S)N(Cc2ccccn2)Cc2ccccc2Cl)c1 | 0.9
O=C(Nc1nnc(SCc2ccc(Cl)cc2)s1)C1CC(=O)N(Cc2ccccc2)C1 (centres undefined) | 13.5

# Grouped by structure, the compounds so far with two or more sulfur atoms.
compound | Biofilm kill mix
COc1ccc(CCN2C(=NC(=O)CC(C)C)SC3CS(=O)(=O)CC32)cc1OC (centres undefined) | 7.9
O=C(Nc1nnc(SCc2ccc(Cl)cc2)s1)C1CC(=O)N(Cc2ccccc2)C1 (centres undefined) | 13.5

# (more compounds)
compound | Biofilm kill mix
CN(O)C(=O)Nc1ccc([N+](=O)[O-])cc1 | 11.3
COc1ccccc1Nc1nnc(SCC(=O)N2CC(=O)Nc3ccccc32)s1 | 23.5
CSc1nc(C)c(Cc2c(F)cccc2Cl)c(=O)[nH]1 | 19.0
CC(C)(C)NC(=O)CN(Cc1ccc2c(c1)OCO2)C(=O)CNC(=O)c1cccs1 | 7.8
COc1ccc(NC(=O)CSc2nc3ccsc3c(=O)n2Cc2ccccn2)c(OC)c1 | 8.7
NNC(=S)NCCc1ccccc1 | 0.7
Oc1ccc2ccccc2c1CN1CCCC1 | 14.4
COc1cc(-c2cc(=O)c3c(O)c(OC)c(OC)c(OC)c3o2)cc(OC)c1OC | 14.9
CCCCNc1nnc(CCn2nc(C)c(Br)c2C)s1 | 11.1
Cc1c(NC2=NC3(CCCCC3)Cc3ccccc32)c(=O)n(C)n1-c1ccccc1 | 6.7
O=C(NCc1ccncc1)Nc1ccccc1F | 17.2
CC1(C)CC(c2nc(-c3ccc(Br)cc3)cs2)CCS1 (centres undefined) | 23.5
CC(C)(C)NC(=O)C(c1cccs1)N(Cc1cccs1)C(=O)c1csnn1 (centres undefined) | 9.8
COc1ccc([N+](=O)[O-])cc1NC(=O)C(C)N(C)Cc1ccc(Br)cc1 (centres undefined) | 12.7
Cc1nc(-c2ccc(S(=O)(=O)N3CCN(CCc4ccccc4)CC3)s2)cs1 | 15.3
O=C(CCc1nc(-c2cccs2)no1)Nc1cnc2ccccc2c1 | 5.6
COc1ccc(N2CC(C(=O)Nc3cccc(C)n3)CC2=O)cc1 (centres undefined) | 15.8
COc1ccc(F)c(CN2CCC(CO)(Cc3cccc(C(F)(F)F)c3)CC2)c1 | 7.9
CCn1c(SCC(=O)N/N=C/c2c[nH]c3ccccc23)nnc1-c1ccc(Cl)cc1 | 13.3
N#C/C(=C/c1ccncc1)c1nc2ccccc2c(=O)[nH]1 | 4.2
O=C1c2ccccc2-c2n[nH]c(=O)c3ccc(N4CCCCC4)c1c23 | 31.4
CCOc1ccc(CN(C)CC(=O)Nc2cccc(C)c2)cc1OC | 8.6
Cc1ccccc1SCC(=O)N1CCN(c2ccc(C(F)(F)F)cn2)CC1 | 11.7
Cc1ccc(NC(=S)Nc2cccc3cnccc23)cc1C | 23.0
CCOC(=O)Cn1cc(/C=N/NC(=O)CC#N)c2ccccc21 | 15.8
CCc1nnc(NC(=O)c2ccc(S(=O)(=O)N3CCc4ccccc4C3)cc2)s1 | 0.3
Cc1sc2nc(CN3CCOCC3)[nH]c(=O)c2c1-c1ccccc1 | 14.6
Cc1ccc(C(=O)N/N=C/c2ccc(N3CCOCC3)cc2)c(C)c1 | 22.4
O=C(Nc1cccc([N+](=O)[O-])c1)c1ccc2c(c1)OCCO2 | 16.0
Nc1cc(=O)[nH]c(SCCOc2ccccc2)n1 | 6.6
CCOc1cccc(-c2cc(C(=O)N/N=C/c3ccc(OC)c(CN4CCOCC4)c3)c3ccccc3n2)c1 | 12.1
O=S(=O)(c1ccc(Cl)cc1)N(CCCN1CCOCC1)Cc1cccs1 | 6.8
Cc1ccc(S(=O)(=O)NCc2c(Cl)cccc2Oc2ccccc2)cc1 | 24.6
CC1=NN(C(=O)c2ccc(Cn3ccc([N+](=O)[O-])n3)cc2)C(O)(C(F)(F)F)C1 (centres undefined) | 6.6
Nc1nc(Nc2ccccc2)nc(NCCO)c1[N+](=O)[O-] | 15.2
COc1ccc(-c2csc(NC(=O)CCCc3cccs3)n2)cc1 | 8.1
c1ccc2c(c1)CCOC2CNCCCN1CCCCC1 (centres undefined) | 10.3
CCOC(=O)c1cc2c(nc1NC(=S)Nc1ccccc1)CC(C)(C)OC2 | -0.3
CCOc1ccc(Oc2nc(C)cc(OC)n2)nn1 | 3.8
CCc1cc2cc(C)c(C)cc2nc1SCC(=O)Nc1cc(C)on1 | 5.5
O=C(NCc1ccco1)c1ccc(-c2ccc(Cl)cc2)o1 | 7.2
COc1ccccc1Nc1nc(NCCC(C)C)nc(N)c1[N+](=O)[O-] | 4.2
COc1ccc(Nc2nnc(SC(C(=O)Nc3cc(C)ccc3C)c3ccccc3)s2)cc1 (centres undefined) | 7.3
C/C(=N\NC(=O)COc1ccccc1F)c1cc2ccccc2o1 | 14.2
C=CCN1c2ccccc2[C@]23C[C@@H](C(=O)OC)N(C(=O)NCCC)C2=NC(C(=O)OC)=C(C(=O)OC)[C@H]13 | 17.1
CC(=O)c1ccc(N=Nc2ccc(C)cc2)cc1 | 10.8
c1ccc(CNc2ncnc3sc4c(c23)CCCC4)nc1 | 11.3
CCOc1ccc(NC(=O)Nc2cccc(C(=O)O)c2)cc1 | -2.0
O=C(NCCc1ccccc1)C(=O)Nc1nccs1 | -0.8
Cc1ccc(N=C2NC(=O)/C(=C/c3cccnc3)S2)c(C)c1 | 28.4

# Continuation.
compound | Biofilm kill mix
O=[N+]([O-])c1ccc2oc(-c3ccccc3)nc2c1 | 21.2
Cc1cn([C@H]2C=C[C@@H](CO)O2)c(=O)[nH]c1=O | 8.0
CC1(C)OC2OC(C(=O)N/N=C/c3ccccc3F)C3OC(C)(C)OC3C2O1 (centres undefined) | 19.6
O=C1N/C(=N/N=C/c2ccc(O)cc2)SC1Cc1ccccc1 (centres undefined) | 24.2
O=C(CSc1ncccc1-c1nc2ccccc2[nH]1)N1CCc2ccccc21 | -5.1
Cc1cccc(NC(=O)CCSc2ccccn2)c1 | 14.1
O=C(Nc1ccccc1)c1cc([N+](=O)[O-])ccc1NC1CCCCC1 | 3.0
Cc1cc(C)c2c(=O)[nH]c(SCc3ccc([N+](=O)[O-])cc3)nc2n1 | 17.6
COc1ccc(NC(=O)CC2C(=O)N(C)C(=S)N2CCc2ccccc2F)cc1 (centres undefined) | 13.5
CCOc1ccc(Nc2nc(Cl)nc(NCCO)n2)cc1 | 11.1
Cc1ccc2c(CC(=O)NCc3cccs3)coc2c1 | 6.5
CNC(=S)N(Cc1ccc(OC)cc1)Cc1cc2cc(C)ccc2[nH]c1=O | 2.2
Cc1c(NC(=O)c2cn3ccccc3n2)cccc1-n1cnnn1 | 33.4
O=[N+]([O-])c1ccc(-c2c(O)c3ccccc3c3nc4ccccc4nc23)cc1 | 2.5
O=C(N/N=C/c1ccccn1)C(=O)N1CCCCCC1 | 20.6
O=C(/C=C/c1ccccc1)Nc1cccc(S(=O)(=O)Nc2ccccc2F)c1 | 17.8
COC(=O)CSc1nc(C)c2ccc(OC)cc2n1 | 9.0
CC(=O)c1ccc(OC(=O)CCN2c3ccccc3Sc3ccccc32)cc1 | 17.1
Clc1ccc(-n2cccc2CN2CCc3c([nH]c4ccccc34)C2c2ccccn2)nc1 (centres undefined) | 13.8
Cc1cccc(NC(=O)CCNC(=O)c2ccco2)c1 | 5.8
O=C(CN1CCCCC1)N1N=C(c2cccs2)CC1c1cccs1 (centres undefined) | 14.2
COC(=O)Nc1ccc(S(=O)(=O)N2CCCC(C(=O)NC3CCS(=O)(=O)C3)C2)cc1 (centres undefined) | 10.5
CC1=C(/C=C/C(C)=N\NC(=O)c2ccncc2)C(C)(C)CCC1 | -8.1
Cc1ccc(CNC(=O)CSCc2ccccc2F)cc1 | 18.1
O=C(CN1CCN(C(=O)C2COc3ccccc3O2)CC1)Nc1ccc(F)cc1 (centres undefined) | 13.8
O=S(=O)(c1ccc(N2CCN(S(=O)(=O)c3ccccc3)CC2)nc1)N1CCCC1 | -9.6
O=CN1CCN(C(C(=O)NC2CCCC2)c2cc3c(cc2[N+](=O)[O-])OCO3)CC1 (centres undefined) | 1.0
S=C1N[C@H]2CCCC[C@@H]2N1 | 22.2
Cc1cc(C)n(-c2nnc(N3CCN(c4ccccc4)CC3)nn2)n1 | 9.0
Cc1nn(-c2ncc(C(F)(F)F)cc2Cl)c(=O)n1-c1cccc(F)c1 | -2.5
COc1ccc(O[C@H]2C=C[C@@H](c3ccccc3)O[C@@H]2COC(=O)CC/C(C)=N/OC[C@@H](O)COCc2ccco2)cc1 | 1.9
CCc1ccc(N(C(=O)c2csnn2)C(C(=O)NC(C)(C)CC)c2cccnc2)cc1 (centres undefined) | 10.4
COc1ccc(Cn2cnc3c(N)c(C)c(C)cc32)cc1 | 9.6
O=C(COC(=O)c1cc(S(=O)(=O)N2CCOCC2)ccc1O)Nc1cc(S(=O)(=O)N2CCCC2)ccc1Cl | 21.1
CCOC(=O)c1ccc(N=c2scc(C)n2CC)cc1 | 7.2
O=C(NCc1ccccc1)C1=C[C@H](c2csc3ccccc23)C[C@H](OCCCCO)O1 | 13.4
Cc1cccc(NC(=O)N2CCN(Cc3ccc4c(c3)OCO4)CC2)c1C | 11.1
CC(NC(=O)c1ccc(Br)cc1)c1ccc2c(c1)CCCC2 (centres undefined) | 7.2
CCc1ccc(NC(=S)NNC(=O)c2ccccc2OC(F)F)cc1 | 15.9
Cc1cc(Cl)ccc1NNC(=O)CCc1ccccc1 | 19.7
Cc1ccc(C)c(S(=O)(=O)N2CCN(CC(=O)Nc3ccc([N+](=O)[O-])cc3)CC2)c1 | 11.9
Cc1cc(C(=O)NCC(=O)OCC(=O)N(C2CCCCC2)C2CCCCC2)ccc1[N+](=O)[O-] | 14.2
Cc1ccc([N+](=O)[O-])cc1S(=O)(=O)N1CCC(C)CC1 | 24.8
O=C(O)CC1(c2ccccc2)C(=O)c2ccccc2C1=O | 7.5
